Screens as filed in PubChem.
BJeLR lethal = kills HRASV12-expressing BJeLR cells; 300,000 compounds, 0.17% hits; AID 1554; BJeLR (HRASV12) viability, CellTiter-Glo ATP luminescence, 48 h; reference of the scale not given here; inhibition, % (no concentration beside the values);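 active = replicate mean above 50%; inconclusive = above 50% but judged a plate artefact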;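 also: 50 nL library stock added to about 25 µL; numbers are from one replicate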
Sa ugtP lethal = compounds lethal to S. aureus RN4220 ugtP deletion mutant; AID 1259309; 330,000 compounds, 0.54% hits; growth inhibition, % (test concentration not listed); OD600 growth, 16 h; some inactives read as strong as hits;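 active = z-score under -3 and OD600 up to 0.15 on both plates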;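 also: plate controls were untreated wells for no effect and antibiotic for full effect; wells of about 80 µL received 100 nL stock; the first replicate is given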
Mtb hypoxia inh = inhibitors of hypoxia-regulated fluorescent reporter in Mycobacterium tuberculosis; fluorescence inhibition, % (no concentration beside the values); 300,000 compounds, 0.1% hits; M. tuberculosis hypoxia-regulated fluorescent reporter, fluorescence;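 active = 35 to 45% if threefold the growth effect, above 45% if 1.5-fold the growth effect; inactive = the rest, general growth blockers included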;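 also: wells of about 50 µL received 100 nL stock; 0% = vehicle wells and 100% = reference inhibitor wells; whole bacteria with a GFP reporter of the hypoxia response; strong numbers were not always called active; many hits fall short of the cut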
PrP UTR inh = inhibition of PrP 5' UTR reporter expression | 340,000 compounds, 0.35% hits | inhibition, % (no concentration beside the values) | cell-based PrP 5' UTR mRNA reporter, plate reader;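 active = every replicate at 50% or more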;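 also: 0 = median of the neutral control wells; tested in H4 reporter cells; numbers are from one replicate; inactives centre near -14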
Bead autofluor = counter-screen for toxin protease inhibitors: compound fluorescence. compound autofluorescence counterscreen, microsphere flow cytometry; active compounds read high. fluorescence intensity (no concentration beside the values). 360,000 compounds, 3.1% hits;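 active = at least 3 SD above the mean of all compounds, about 16000 in these data; inconclusive = too few beads counted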;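 also: 100 nL of 1 mM stock went into each well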
Sa RN4220 lethal = kills Staphylococcus aureus RN4220; S. aureus RN4220 growth, OD600, 16 h; inhibition, % (concentration not given with the values); 330,000 compounds, 0.33% hits; AID 1259311;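 active = z-score of -3 or lower and OD600 up to 0.18 on both plates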;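 also: plate controls were untreated cells for no effect and reference antibiotic for full effect; stock transfer was 100 nL into about 80 µL; one replicate is shown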
Mtb hypoxia inh growth = also measured in Mtb hypoxia inh; calls as there; growth inhibition, %; measured here: M. tuberculosis growth (absorbance);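 0% = vehicle and 100% = reference antibiotic; read after six days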
Active calls of the source: *; ? = inconclusive; . = no result given.

SMILES	BJeLR lethal	Sa ugtP lethal	Mtb hypoxia inh	Mtb hypoxia inh growth	PrP UTR inh	Bead autofluor	Sa RN4220 lethal
O=C(Nc1ccccc1)NC1CCN(Cc2nnnn2C2CCCCC2)CC1	2	-3	0	-2	-21	11232	0.7
O=C(NCCCN1CCOCC1)c1cc2ccccc2o1	-10	7	-3	-2	-29	7018	4.8
CC1CCC2(CC1)NC(=O)N(CC(=O)NC(C)c1ccc(F)c(F)c1)C2=O (stereo unspecified)	.	-6	-10	5	-12	6231	-3.7
Cc1ccc(S(=O)(=O)NCC(=O)OCCOc2ccccc2F)cc1	.	6	-1	9	-54	3465	6.8
Cc1ccc(NC(=O)CN(C)S(=O)(=O)c2cccc3nsnc23)cc1C	3	-4	2	6	-6	3754	4.6
COc1ccc(NS(=O)(=O)c2ccc(NC(C)=O)cc2)nn1	-3	-1	-8	7	.	?	-1.1
COc1cc(Cn2cnnn2)ccc1O	2	.	.	.	-9	3368	.
CC(=O)c1ccc(NS(=O)(=O)c2ccc3c(c2)CCC(=O)N3)cc1	.	-5	1	10	-25	3711	-0.7
CN(C)S(=O)(=O)c1ccc(N2CCCC2)c(C(=O)N2CCN(S(=O)(=O)c3ccc(F)c(F)c3)CC2)c1	.	3	-4	3	0	3930	1.6
CCOCCCNC(=S)Nc1cc(OCC)c(NC(=O)c2ccco2)cc1OCC	1	11	6	9	-5	3579	11
CC(/C=C1\SC(=S)N(C(C(=O)O)C(C)C)C1=O)=C\c1ccccc1 (stereo unspecified)	2	1	5	-7	-6	4688	18
O=C(O)/C(=C\c1cccc([N+](=O)[O-])c1)c1ccc(S(=O)(=O)N2CCCCC2)s1	9	-3	12	-1	-24	4287	4.5
Cc1cc(C)n2nc3nc(N4CCCC4)nc(-c4ccccc4)c3c2n1	-1	5	.	.	-15	2837	-0.3
Cc1ccc(S(=O)(=O)N2C(c3cccc(C)c3)CC=C(C(=O)O)C2c2ccc(Cl)cc2)cc1 (stereo unspecified)	.	43	2	-2	.	.	26
CCN(CC(=O)Nc1ccc(NC(C)=O)cc1)C(=O)c1cc(C)on1	3	2	-2	3	-8	?	1.4
CN(CCc1ccccc1)C(=O)c1ccc(NC(=O)Cc2ccc(NC(=O)C3CCN(S(=O)(=O)c4cccc([N+](=O)[O-])c4)CC3)cc2)cc1	.	2	0	-1	-19	3945	2.0
N=c1ccccn1Cc1ccccc1	2	7	6	0	-20	4391	4.7
CC1(C)CC(=O)C2=C(C1)c1c(ccc3ccccc13)NC2c1ccc(OCC(=O)O)cc1 (stereo unspecified)	5	5	7	7	-20	3831	2.5
COc1ccc(NC(=O)CSc2ccc3nnc(-c4ccccn4)n3n2)cc1OC	-7	2	-8	3	0	6084	1.6
Cc1cc2c(cc1S(=O)(=O)NCCc1ccc(Cl)cc1)OCC(=O)N2	4	-8	6	11	-16	6207	-4.6
O=C(Nc1nc2ccc(S(=O)(=O)N3CCCC3)cc2s1)C1CCCO1 (stereo unspecified)	-4	-9	4	12	-4	.	-2.2
O=C(NC(=S)Nc1ccccn1)c1cccc([N+](=O)[O-])c1	1	7	1	-1	-93	.	4.4
COc1cccc(OC)c1CN1CCCC(C(=O)c2cccc(Cl)c2)C1 (stereo unspecified)	-4	6	-14	-12	-18	3980	1.8
O=C(C[n+]1ccccc1)NN=Cc1ccccc1[N+](=O)[O-]	.	11	4	7	.	.	-2.5
COc1ccc(N2C(=O)CC2(/C=C/c2ccccc2OC)C(=O)NC2CCCC2)cc1 (stereo unspecified)	-17	-15	14	8	-18	3978	7.9

Other entries follow.
SMILES	BJeLR lethal	Sa ugtP lethal	Mtb hypoxia inh	Mtb hypoxia inh growth	PrP UTR inh	Bead autofluor	Sa RN4220 lethal
COc1cc(C2=NOC(C(=O)Nc3ccc4c(c3)OCO4)C2)cc(OC)c1OC (stereo unspecified)	3	-4	-3	1	-14	3272	-7.2
COC(=O)c1cn(-c2nc(C)c3c(n2)CCC3)nn1	20	2	5	-10	-17	4515	3.1
Cc1cc(N2C(=O)C(O)=C(C(=O)c3ccco3)C2c2cccnc2)no1 (stereo unspecified)	2	6	-1	1	.	.	4.6
COc1cccc(Nc2nnc(Cc3cccnc3)c3ccccc23)c1	4	3	18	2	-8	2936	1.4
CCCCCn1c(=O)[nH]c2cc(C(=O)NCCCN3CCCCC3)ccc2c1=O	3	1	16	20	-9	4147	6.3
O=C1CCCC(O)=C1N=Nc1cccc(S(=O)(=O)N2CCOCC2)c1	4	-1	11	1	-17	3389	1.0
CS(=O)(=O)N(Cc1cccc(CN(C(C(=O)O)c2ccccc2)S(C)(=O)=O)c1)C(C(=O)O)c1ccccc1 (stereo unspecified)	-13	3	15	10	-39	4027	8.2
O=C(Nc1ccc(Cl)c(Cl)c1)Nc1ccccn1	4	-13	3	8	-51	3539	3.6
Cc1ccc(-c2cn(-c3ccccc3F)c(=S)[nH]2)cc1	-10	12	-9	-11	-52	3405	-6.3
Cc1ccccc1CSc1nnc(-c2cccnc2)n1N	7	-6	.	.	-43	2660	2.9
C#CCOCCOCCOCCNc1nc(N2CCN(C(=O)C(CCCCN)n3cc(CC(C)O)nn3)CC2)nc(N2CCN(C(=O)C(C(C)CC)n3cc(CCCCN)nn3)CC2)n1 (stereo unspecified)	.	-2	5	10	.	.	8.1
COc1ccc(N(CC(=O)NC2CCCCC2)S(=O)(=O)c2cccnc2)cc1	0	6	.	.	-25	6331	-0.2
CSc1cccc(NC(=S)NCCCN2CCN(c3ccc(F)cc3)CC2)c1	3	-2	0	3	-23	4629	1.5
Cc1ccc2c(c1)c1c(n2CC(O)CNC2CCCC2)CCCC1 (stereo unspecified)	0	-7	14	8	-34	6612	-3.8
CCOC(=O)c1nnn2c1nc(N1CCN(c3ccccc3)CC1)c1ccccc12	-8	-4	8	5	-21	3937	6.7
CC1CCN(CC(=O)N(C)c2c(N)n(Cc3ccccc3)c(=O)[nH]c2=O)CC1	.	-1	-5	5	5	?	0.6
Cc1cc(C)n(-c2ccccc2[N+](=O)[O-])n1	-3	-1	7	4	-20	3572	5.4
O=C1Nc2cc(Cl)cnc2N2CCCC12 (stereo unspecified)	11	5	2	5	-18	6067	4.2
Fc1ccc(CO/N=C/C2=C(Cl)c3ccccc3CC2)cc1	3	.	.	.	-13	2732	.
NC(=O)c1ccc(-c2noc(-c3cccc(Cl)c3)n2)cc1	.	-1	.	.	-48	4474	-7.5
CC(=O)Nc1ccc2nc(NC(=O)c3ccc([N+](=O)[O-])s3)sc2c1	1	-5	22	24	.	.	6.9
O=[N+]([O-])c1ccc(C2CCCC/C2=N\OCc2cccc(F)c2)c([N+](=O)[O-])c1 (stereo unspecified)	-5	.	.	.	-13	23769*	.
COc1cc(CN2CCCC(C)C2)cc([N+](=O)[O-])c1O (stereo unspecified)	-7	-1	-1	-2	-21	23731*	-2.4
CCOCc1c(C(=O)Nc2cc(OCC)c(N3CCOCC3)cc2OCC)oc2ccccc12	4	16	-7	5	-16	5115	2.7
O=C(c1cccc2ccccc12)C1CCCN(C(=O)c2ccc(N3CCOCC3)cc2)C1 (stereo unspecified)	3	12	8	0	-25	4799	-1.3

Remaining list, next part
SMILES	BJeLR lethal	Sa ugtP lethal	Mtb hypoxia inh	Mtb hypoxia inh growth	PrP UTR inh	Bead autofluor	Sa RN4220 lethal
CC1(C)CC(=O)C2=C(C1)NC1=C(C(=O)c3ccccc31)C2c1cc([N+](=O)[O-])ccc1O (stereo unspecified)	1	12	5	-9	-32	5142	49
O=C(COc1ccc(S(=O)(=O)N2CCOCC2)cc1)NCCCn1ccnc1	6	7	7	2	-14	4222	2.1
Cc1cc([N+](=O)[O-])c2[nH]c(C(=O)NN=Cc3ccccc3C(=O)O)c(-c3ccccc3)c2c1	.	-4	-1	2	.	.	21
Cn1c(=O)c2cc(S(=O)(=O)N3CCC(c4ccccc4)CC3)ccc2n(C)c1=O	-9	2	-1	6	-12	10299	3.9
O=[N+]([O-])c1ccccc1Nc1c2ccccc2nc2ccccc12	6	-9	-2	-1	-23	4540	-2.0
COc1ccccc1NC(=O)c1ccc(NC2=NC3CS(=O)(=O)CC3S2)cc1 (stereo unspecified)	-10	5	8	4	-8	4542	-9.4
O=C(Nc1ccccc1)ON=C1CCCc2occc21	.	-9	3	3	.	.	7.9
NNC(=O)c1[nH]c2ccc([N+](=O)[O-])cc2c1-c1ccccc1	-1	-24	-1	2	-1	3524	-4.1
COc1ccc(C2=NC(=O)/C(=C\c3cc(OC)c(OC)c(OC)c3)O2)cc1	.	0	-2	4	-14	2645	-2.8
CCC(CC)c1nnc(NC(=O)CSCC(=O)Nc2cc(C)on2)s1	-3	4	-6	2	-26	6940	-0.4
O=S(=O)(c1ccccc1Cl)N1CCC(Cc2ccccc2)CC1	-8	63	10	8	-29	4088	-3.4
COc1ccccc1CCc1nnc(CCC(=O)N(C)Cc2cccc3ncccc23)o1	-5	4	-3	3	58*	3174	3.6
O=C(Nc1cccc([N+](=O)[O-])c1)c1ccc2nc(N3C(=O)CCC3=O)sc2c1	3	0	15	8	-17	21930*	-1.8
COc1ccc(CN(C)C(C)C(=O)Nc2ccc(S(=O)(=O)N3CCCCC3)cc2)c(OC)c1 (stereo unspecified)	.	3	6	14	13	4105	1.4
O=C(O)CC/C(=C\c1ccc(N2CCCC2)c([N+](=O)[O-])c1)c1nc2ccccc2s1	2	25	7	2	-29	4499	24
C=CCn1c(COc2cccc(C)c2)nnc1SC(C)C(=O)NC1CC1 (stereo unspecified)	.	-2	6	-2	-13	4004	4.6
CC1C/C(=N/Nc2nc3ccccc3[nH]2)CC(C)(C)C1 (stereo unspecified)	-11	.	.	.	-17	3151	.
CCOc1ccc(NC(=S)Nc2ccc(OC)cc2)cc1	-1	-6	.	.	-18	2550	4.4
COc1cccc(C(=O)/C=C2\NCCc3cc(OC)c(OC)cc32)c1	-10	3	11	2	2	4721	5.9
CN(C)CCCN(CCCN(C)C)C(=S)Nc1ccc(S(=O)(=O)N2CCOCC2)cc1	7	5	-3	5	-24	3980	2.5
CC(=O)Nc1ccc(N=Cc2nc(-c3ccc(C)cc3)oc2O)cc1	-4	-7	3	5	-15	4024	-0.2
CCOC(=O)C1=C(N)OC2=C(C(=O)CCC2)C1c1ccc2c(c1)OCO2 (stereo unspecified)	-1	2	11	2	-29	4181	2.3

2 entries from above, in CSV form:
Molecule,BJeLR lethal,Sa ugtP lethal,Mtb hypoxia inh,Mtb hypoxia inh growth,PrP UTR inh,Bead autofluor,Sa RN4220 lethal
COc1ccccc1NC(=O)c1ccc(NC2=NC3CS(=O)(=O)CC3S2)cc1 (stereo unspecified),-10,5,8,4,-8,4542,-9.4
Cn1c(=O)c2cc(S(=O)(=O)N3CCC(c4ccccc4)CC3)ccc2n(C)c1=O,-9,2,-1,6,-12,10299,3.9

Full records, looked up by structure. Values in the order: BJeLR lethal | Sa ugtP lethal | Mtb hypoxia inh | Mtb hypoxia inh growth | PrP UTR inh | Bead autofluor | Sa RN4220 lethal
Cc1cc([N+](=O)[O-])c2[nH]c(C(=O)NN=Cc3ccccc3C(=O)O)c(-c3ccccc3)c2c1 as listed: . | -4 | -1 | 2 | . | . | 21
CC(=O)Nc1ccc(N=Cc2nc(-c3ccc(C)cc3)oc2O)cc1 as listed: -4 | -7 | 3 | 5 | -15 | 4024 | -0.2
COc1cccc(C(=O)/C=C2\NCCc3cc(OC)c(OC)cc32)c1 as listed: -10 | 3 | 11 | 2 | 2 | 4721 | 5.9

Four of the compounds above, with each value named:
COc1cccc(C(=O)/C=C2\NCCc3cc(OC)c(OC)cc32)c1
  BJeLR lethal: -10	Sa ugtP lethal: 3	Mtb hypoxia inh: 11	Mtb hypoxia inh growth: 2	PrP UTR inh: 2	Bead autofluor: 4721	Sa RN4220 lethal: 5.9
O=C(Nc1ccccc1)ON=C1CCCc2occc21
  BJeLR lethal: .	Sa ugtP lethal: -9	Mtb hypoxia inh: 3	Mtb hypoxia inh growth: 3	PrP UTR inh: .	Bead autofluor: .	Sa RN4220 lethal: 7.9
COc1ccccc1CCc1nnc(CCC(=O)N(C)Cc2cccc3ncccc23)o1
  BJeLR lethal: -5	Sa ugtP lethal: 4	Mtb hypoxia inh: -3	Mtb hypoxia inh growth: 3	PrP UTR inh: 58*	Bead autofluor: 3174	Sa RN4220 lethal: 3.6
COc1ccc(C2=NC(=O)/C(=C\c3cc(OC)c(OC)c(OC)c3)O2)cc1
  BJeLR lethal: .	Sa ugtP lethal: 0	Mtb hypoxia inh: -2	Mtb hypoxia inh growth: 4	PrP UTR inh: -14	Bead autofluor: 2645	Sa RN4220 lethal: -2.8
